# GALR2 agonist – GALR2 (human) receptor agonism; activation, %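 (tested at 5 µM)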; O43603; GALR2-expressing cells, agonist activation read-out; 140,000 tested, 0.48% active;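 active = above mean plus 3 SD of all compounds, about 5% in these data, not always enough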;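 also: 0% = vehicle buffer wells and 100% = reference agonist at full effect; tested in CHO reporter cells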
# Target sequence (O43603 whole entry, looked up): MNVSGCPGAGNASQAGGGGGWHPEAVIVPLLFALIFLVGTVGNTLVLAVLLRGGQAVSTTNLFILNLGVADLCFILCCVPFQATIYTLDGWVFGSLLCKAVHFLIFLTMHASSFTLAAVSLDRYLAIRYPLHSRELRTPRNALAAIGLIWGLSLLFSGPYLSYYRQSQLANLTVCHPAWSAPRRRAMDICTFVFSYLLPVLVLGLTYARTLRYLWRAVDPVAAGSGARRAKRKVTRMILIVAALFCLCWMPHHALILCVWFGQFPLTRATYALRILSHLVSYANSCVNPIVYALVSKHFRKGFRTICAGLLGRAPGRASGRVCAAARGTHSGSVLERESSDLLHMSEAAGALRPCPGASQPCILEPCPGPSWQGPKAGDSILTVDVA
# Insulin prom inh – TRM-6 insulin promoter activity inhibition; 130,000 tested, 0.9% active; inhibition, % at 2 µM; TRM-6 cells (human fetal islet line), insulin promoter-eGFP reporter, imaging; reporter expression induced with tamoxifen;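 active = inhibition above the mean plus 3 SD, with well images judged a real hit on visual review, cut at about 60% in these data, passing the limit was not always enough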
# RGS16-Gao HTS – modulates binding between human RGS16 and Galphao; AID 1441; 220,000 tested, 0.38% active; binding response (% of control), % at 10 µM; bead-based flow cytometry RGS16-Galphao binding, fluorescence; actives lie on both sides; O15492+P09471;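 active = below 25% or above 175%, edge rows of some plates excepted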;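 also: Galphao activated by GDP with aluminum fluoride before binding; 100% = wells without compound and 0% = beads without RGS; some results beyond the cut were filed as inactive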
# Target sequence (O15492 whole entry, looked up): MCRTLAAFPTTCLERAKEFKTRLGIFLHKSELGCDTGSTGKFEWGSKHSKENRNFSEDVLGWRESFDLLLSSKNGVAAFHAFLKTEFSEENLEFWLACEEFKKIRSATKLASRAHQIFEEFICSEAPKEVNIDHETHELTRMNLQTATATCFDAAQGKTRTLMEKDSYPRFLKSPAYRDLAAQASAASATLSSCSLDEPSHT
# Target sequence (P09471 whole entry, looked up): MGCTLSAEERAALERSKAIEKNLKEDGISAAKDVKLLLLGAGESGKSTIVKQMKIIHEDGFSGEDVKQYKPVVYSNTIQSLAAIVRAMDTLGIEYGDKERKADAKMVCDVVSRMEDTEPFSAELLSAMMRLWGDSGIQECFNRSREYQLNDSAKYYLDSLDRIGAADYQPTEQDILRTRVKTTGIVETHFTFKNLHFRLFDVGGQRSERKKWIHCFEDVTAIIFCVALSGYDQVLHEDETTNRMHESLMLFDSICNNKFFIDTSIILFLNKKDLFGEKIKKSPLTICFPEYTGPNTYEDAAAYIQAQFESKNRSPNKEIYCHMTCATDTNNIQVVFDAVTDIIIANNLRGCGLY
# PKD1 inh – PKD1 (human) kinase inhibition. PKD1 kinase fluorescence polarization assay. 200,000 tested, 0.056% active. AID 797. inhibition, %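 (about 10 µM by stock and volumes)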;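 active = inhibition of 50% or more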;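 also: controls were vehicle for no effect and a reference inhibitor for full effect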
# HSV replic up – increases HSV replication in cells. HSV replication augmentation in cells, fold increase. maximum fold increase. 220,000 tested, 0.005% active;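 active = peak rise of 1.5-fold or more in the series; tested in PC3 cells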;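 also: first round at 10 µM; read as green reporter fluorescence; hits show the peak of a series up to 25 µM; 1 = signal of infected wells without compound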
# Insulin prom inh cell count – recorded beside Insulin prom inh, whose call it bears; normalized cell count, %; measured here: cell count, toxicity; reference of the scale not given here;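 cells exposed to compound for 48 h; stained nuclei by imaging scaled within each plate; lower means fewer cells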
# HSV replic up primary fold – second read-out of HSV replic up, no call of its own (marks repeat the call); fold increase; compound at 10 µM; measured here: primary screen fold increase 10 uM; tested in PC3 cells;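 GFP signal in the first replicate; 1 = infected wells without compound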
# Starred values were filed as active, the others as inactive; i = inactive; · = not tested or not shown; & = joins results of further samples.
SMILES,GALR2 agonist,Insulin prom inh,Insulin prom inh cell count,RGS16-Gao HTS,PKD1 inh,HSV replic up,HSV replic up primary fold
C=CCNC(=O)CC1Nc2c3ccccc3nc(=S)n2C1=O (stereo unspecified),·,·,·,103,-1,i,0.95
Cc1cc(C)cc(N(CC(=O)Nc2ccc(-c3nc4ccc(C)cc4s3)cc2)S(C)(=O)=O)c1,0.3,·,·,103,-14,i,1
COc1cc(OC)cc(C(=O)Nc2c(F)cccc2F)c1,-2.5,25,107,123,-7,i,1.1
CCc1c(C(=O)N2CCN(c3ccccc3F)CC2)[nH]c(C)c1C(C)=O,-0.7,46,102,108,-2,i,0.97
Cc1ccc(N2C(=O)CC(NNc3nc4ccccc4s3)C2=O)cc1C (stereo unspecified),0.2,-10,105,104,-5,i,1.1
CC(=O)c1csc(COc2cc(Cl)cc(Cl)c2)n1,·,·,·,98,·,i,1.1
COc1ccc(-c2[nH]ncc2CN2CCCC(C(=O)c3cccc(OC)c3)C2)cc1 (stereo unspecified),·,·,·,105,3,i,0.98
O=C(COC(=O)c1ccc(Cl)s1)c1ccc[nH]1,·,-9,86,113,-7,i,0.77
Cc1c(/C=N/NC(=O)c2ccc3c(c2)OCO3)cnn1C,-0.3,·,·,102,0,i,0.9
Cc1ccc(NC(=O)N2CCC(C(=O)NCc3ccc(F)cc3)CC2)cc1,-0.1,57,74,108,-9,i,0.93
COCC(=O)Nc1cccc2ccccc12,-2.2,45,19,98,-10,i,1
COc1ccccc1NC(=O)c1ccc(NC(=O)COC(=O)C(C)C)cc1,-0.2,·,·,113,-4,i,0.97
CC(C)(O)C#Cc1ccc(C(=O)NCc2ccccc2F)cc1,-1.4,-31,51,104,-11,i,1
COc1ccccc1CNC(=O)C1CC(c2c(Cl)cccc2Cl)=NO1 (stereo unspecified),-0.8,-10,69,86,-9,i,0.96
CC1(OC(=O)C2CCCC2)C(=O)C=C2C=C(c3ccsc3)OC=C2C1=O (stereo unspecified),·,·,·,103,·,i,1
O=C(O)c1cccc(C(=O)Cc2ccccc2)c1,-1.9,·,·,105,10,i,0.97
Cc1c(NC(=O)CN2C(=O)C(=O)N(Cc3ccccc3)C2=O)c(=O)n(-c2ccccc2)n1C,·,·,·,103,·,i,1
CC(=N\O)/C(CN(C)C)=N/O,0.6,-21,140,101,-6,i,0.92
Cc1c([N+](=O)[O-])c2ccc(O)cc2n1-c1ccccc1,·,·,·,90,·,i,1.2
Cc1ccc(-c2nc3ncccc3o2)cc1NC(=O)c1ccccc1,·,·,·,98,·,i,1.1
CC(C)Nc1nc(Oc2ccc(=O)n(-c3ccccc3)n2)nc(N(C)C)n1,·,·,·,97,·,i,0.92
CCc1c(O)nc(N2CCN(Cc3ccccc3)CC2)[nH]c1=O,-1.9,25,98,101,-4,i,0.9
Cn1c(Oc2ccc(Cl)cc2)c(C=O)c2ccccc21,-0.2,32,113,103,-3,i,0.84
CC(=O)Oc1ccccc1/C=C1\CCOC1=O,-1.6,-7,68,102,1,i,1
COc1ccc(C(C)=O)cc1COC(=O)CNC(=O)c1cc(C)cc(C)c1,-0.9,0,113,105,2,i,0.89
O=C(Cn1c(=O)oc2cc(S(=O)(=O)NCc3ccccc3)ccc21)NCc1ccco1,0.3,·,·,55,-1,i,0.85
O=C(CC1C(=O)NCCN1C(=S)Nc1ccccc1)Nc1ccc2c(c1)OCCO2 (stereo unspecified),-3.2,11,179,102,-4,i,1
O=C(NCc1ccco1)/C(=C/c1cccnc1)NC(=O)c1ccco1,-1.5,-4,99,1.6*,-2,i,1.2
O=C(NCC1CCCO1)C1CCN(C2CCN(C(=O)Cc3ccsc3)CC2)CC1 (stereo unspecified),·,·,·,106,10,i,1.2
CCOc1ccc(/C=N/N2C(=O)C(CC(=O)Nc3ccc(F)cc3F)SC2=NC)cc1OC (stereo unspecified),6.0*,-11,46,102,-13,i,0.94

# Compounds from the list above that have a Cl atom (4):
SMILES,GALR2 agonist,Insulin prom inh,Insulin prom inh cell count,RGS16-Gao HTS,PKD1 inh,HSV replic up,HSV replic up primary fold
CC(=O)c1csc(COc2cc(Cl)cc(Cl)c2)n1,·,·,·,98,·,i,1.1
O=C(COC(=O)c1ccc(Cl)s1)c1ccc[nH]1,·,-9,86,113,-7,i,0.77
COc1ccccc1CNC(=O)C1CC(c2c(Cl)cccc2Cl)=NO1 (stereo unspecified),-0.8,-10,69,86,-9,i,0.96
Cn1c(Oc2ccc(Cl)cc2)c(C=O)c2ccccc21,-0.2,32,113,103,-3,i,0.84

# Next part.
SMILES,GALR2 agonist,Insulin prom inh,Insulin prom inh cell count,RGS16-Gao HTS,PKD1 inh,HSV replic up,HSV replic up primary fold
CN(C)S(=O)(=O)N(CC(=O)N1CCN(c2ccccc2F)CC1)c1ccccc1,·,·,·,96,-1,i,1
Cc1nc(N2CCOCC2)nc(OCCN(C)C)c1[N+](=O)[O-],-1.1,-8,61,124,-8,i,1
COc1ccc(-c2csc(NC(=O)C3CC(=O)N(c4ccc5c(c4)OCCO5)C3)n2)cc1 (stereo unspecified),-0.7,18,66,87,7,i,0.85
O=C(CCN1C(=O)c2cccc3cccc(c23)C1=O)Nc1ccccc1,·,38,109,99,-5,i,0.94
CC1=CC(C)(C)n2c(O)c(N=N)c3c(C)c(C)cc1c32,·,·,·,96,·,i,0.98
C=CCc1cccc(CNc2c(C)n(C)n(-c3ccccc3)c2=O)c1O,1.7,76*,44*,98,-2,i,0.95
CC(C)C(O)(CC#CCN1CCCC1)c1ccccc1 (stereo unspecified),·,-69,139,96,-3,i,0.74
COc1ccc(S(=O)(=O)N2CCC(C(=O)NCc3ccccc3)CC2)cc1OC,·,·,·,126,-5,i,0.9
Cc1ccc(N(CC(=O)Nc2ccc(C)cc2C)S(=O)(=O)N2CCCC2)cc1,-2.8,-13,119,98,-12,i,0.85
Cc1ccc(CNC(=O)CCNC(=O)c2ccco2)cc1,-1.6,29,49,99,-6,i,1
CCCCc1ccc(NC(=S)NCc2cccs2)cc1,-0.4,-23,327,109,-2,i,0.98
CCOc1ccc(C(=O)/C=C/c2cc(OC)c(OC)c(OC)c2)cc1,·,·,·,101,-6,i,0.76
Cc1ccccc1Nc1nnc(SCc2cc(=O)n3ccsc3n2)s1,-1.7,0,97,79,-2,i,0.86
COc1ccc(C(=O)CSc2n[nH]c(N)n2)cc1,-0.3,-7,116,104,-3,i,1
C=CCNCc1cccn1-c1ccccc1,-0.3,·,·,95,-7,i,0.93
CCOc1ccc(NC(=O)CN2CC(c3ccccc3)CC2=O)cc1 (stereo unspecified),0.3,·,·,100,3,i,1.2
Cc1ccc(N(Cc2cc3ccc(C)cc3[nH]c2=O)S(C)(=O)=O)c(C)c1,·,·,·,90,·,i,0.84
c1c2c(cc3sc(N4CCOCC4)nc13)OCCO2,-0.9,·,·,102,-17,i,0.84
O=C(CCCn1c(=S)[nH]c2ccc(Br)cc2c1=O)NCC1CCCO1 (stereo unspecified),-1.7,-36,73,93,9,i,1
CC(=O)C1=C(O)C(=O)N(CCCn2ccnc2)C1c1ccc(C)cc1 (stereo unspecified),-2.8,-70,105,97,7,i,1
CCCCNC(=S)NNC(=O)c1csc(CC)c1,-2.0,-69,131,74,9,i,0.76
COc1ccc(-n2c(Cc3cccn3C)nnc2SCC(=O)Nc2nccs2)cc1,-1.8,·,·,95,1,i,1.3
O=C(NNc1cccc(Cl)n1)Nc1ccccc1Cl,-2.5,16,125,84,-12,i,0.92
c1ccc(Cn2nnc3c(NCc4ccc5c(c4)OCO5)nc(C4CC4)nc32)cc1,-2.5,·,·,104,5,i,0.93
COc1ccc(Cl)cc1N1C(=O)C2CCCN2C1c1cccc(F)c1 (stereo unspecified),-1.9,·,·,104,-3,i,0.88
CCC1CCCCN1C(=O)c1cccc(S(=O)(=O)Nc2cc(C(F)(F)F)ccc2Cl)c1 (stereo unspecified),-1.1,-45,128,100,11,i,1.1
O=C(NCC1CCCN(Cc2ccc3nonc3c2)C1)c1cccc(C(F)(F)F)c1 (stereo unspecified),·,21,103,104,0,i,1
COc1cc(NC(=S)NC(=O)c2ccccc2C)ccc1NC(=O)c1cccs1,-2.3,13,90,87,9,i,1
Cn1cc(S(=O)(=O)N2CCN(c3ccccc3)CC2)c(=O)n(C)c1=O,-1.0,·,·,101,-17,i,0.99
CCOC(=O)c1ccc(NC(=S)N(Cc2cccnc2)Cc2ccco2)cc1,·,33,149,95,-3,i,0.98

# Complete entries, quoted from the list. Order of screens: GALR2 agonist, Insulin prom inh, Insulin prom inh cell count, RGS16-Gao HTS, PKD1 inh, HSV replic up, HSV replic up primary fold
# CCOC(=O)c1ccc(NC(=S)N(Cc2cccnc2)Cc2ccco2)cc1 reads ·, 33, 149, 95, -3, i, 0.98
# O=C(NCC1CCCN(Cc2ccc3nonc3c2)C1)c1cccc(C(F)(F)F)c1 (stereo unspecified) reads ·, 21, 103, 104, 0, i, 1

# The list continues:
SMILES,GALR2 agonist,Insulin prom inh,Insulin prom inh cell count,RGS16-Gao HTS,PKD1 inh,HSV replic up,HSV replic up primary fold
O=C1CCCC(O)=C1N=Nc1ccc2c(c1)OCO2,-0.1,-97,79,97,11,i,1.1
COc1ccc2nc(NC(=O)Cc3cccs3)sc2c1,0.0,27,124,102,-4,i,0.83
C[C@]12CC[C@@H]3c4ccc(OS(=O)(=O)O)cc4CC[C@H]3[C@@H]1CCC2=O,-0.6,-14,107,99,-4,i,0.93&1
CCCC(=O)c1c[nH]c(C(=O)NCc2cccnc2)c1,·,-8,117,97,0,i,0.96
COc1cc(OC)c(CN2CCCCCCC2)cc1Br,-0.9,26,68,107,5,i,0.84
CCC1CCc2c(sc(NC(=O)C3CC=CCC3C(=O)O)c2C#N)C1 (stereo unspecified),-0.1,-27,103,106,-9,i,0.92
COc1ccccc1-n1cc(C(=O)NCC(=O)NCc2ccc(F)cc2)c2ccccc2c1=O,·,-40,94,102,-1,i,0.94
O=C(c1ccco1)N1CCCN(Cc2nc(Cc3ccccc3)no2)CC1,·,·,·,97,2,i,0.98
N/C(=N\OC(=O)CC1CCCCC1)c1cccc([N+](=O)[O-])c1,-0.7,24,148,106,-5,i,1
CCCC(c1nnnn1Cc1ccco1)N1CCN(c2cc(Cl)ccc2C)CC1 (stereo unspecified),-2.5,·,·,104,2,i,1
CN(C)C(=O)c1nc2ccc(Cl)cn2c1CNCc1cccc(OC(F)(F)F)c1,·,·,·,101,·,i,0.95
CCN(CC)CCNC(=O)CCc1n[nH]c(=O)c2ccccc12,-2.5,10,78,102,-11,i,0.88
CN(C1CCCCC1)S(=O)(=O)c1ccc(C(=O)O)cc1,-1.6,28,97,84,-6,i,1
CCSc1nnc(NC(=O)COc2ccccc2)s1,-2.4,-30,78,88,-8,i,0.97
CCNS(=O)(=O)c1ccc2nc(NC(=O)c3cccnc3)sc2c1,-1.6,53,85,105,-6,i,0.85
O=C(NC(=S)Nc1ccc(C(=O)N2CCOCC2)cc1)c1ccc([N+](=O)[O-])cc1,0.1,·,·,92,-4,i,0.68
Cc1ccnc(N2CCC(C(=O)NNC(=O)c3ccncc3)CC2)n1,·,·,·,100,-6,i,0.93
COc1ccc(/C=C2/CC/C(=C\c3ccc(OC)c(OC)c3OC)C2=O)c(OC)c1OC,-0.3,33,76,133,-9,i,1.1
O=C(c1cccnc1Nc1ccc2c(c1)CCC2)N1CCOCC1,-2.5,-62,140,-1.9*,6,i,1.1
CC/C(O)=C1\C(=O)CC(c2ccccc2)CC1=NCCc1c(C)[nH]c2ccc(C)cc12 (stereo unspecified),0.6,-32,126,104,-3,i,0.93
CCOC(=O)/C(C#N)=C/c1c(Oc2cc(C)cc(C)c2)nc2ccccn2c1=O,-0.6,·,·,120,-6,i,1.1
COc1ccccc1/C=C/C=N/NC(=O)c1cc(-c2ccc(C)o2)[nH]n1,·,·,·,94,·,i,0.83
CCc1ccccc1NC1=NCC(=O)N1Cc1ccc(OC)cc1,-1.2,62,194,104,0,i,1
CCOc1ccc(C2N(c3cc(Cl)ccc3OC)C(=O)C3CCCN32)cc1OC (stereo unspecified),-1.8,·,·,104,3,i,1.2
CC1(C)CSC(=S)N1S(=O)(=O)c1ccccc1,-0.9,·,·,97,-2,i,1.2
COC(=O)CN1C(C)=Nc2ccc(Br)cc2C1c1ccccc1 (stereo unspecified),-2.0,13,115,106,-26,i,0.69
COCCNC(=S)NNC(=O)c1ccc(-n2cnnn2)cc1,·,·,·,104,-2,i,1.1
O=C1CCCC2=C1C1c3ccccc3C(=O)N1c1ccc(C(=O)c3ccccc3)cc1N2 (stereo unspecified),-0.1,-14,136,104,-12,i,1
COC(=O)[C@H](CC(C)C)NC(=O)NCc1ccc(Cl)cc1,·,·,·,104,·,i,1.1
Nc1c(C(=O)O)cnc2nc(N3CCOCC3)nn12,·,-17,103,96,-5,i,1
